Assay outcomes (PubChem BioAssay)
ugtP null kill – kills S. aureus RN4220 lacking UgtP. S. aureus RN4220 ugtP deletion, OD600 growth, 16 h; some inactives read as strong as hits. growth inhibition, % (concentration not given with the values). 330,000 tested, 0.54% active. AID 1259309;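 active = z-score under -3 and OD600 up to 0.15 on both plates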;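 also: plate controls were untreated wells for no effect and antibiotic for full effect; wells of about 80 µL received 100 nL stock; the first replicate is given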
Sa RN4220 lethal – S. aureus RN4220 growth inhibition. inhibition, % (test concentration not listed). 330,000 tested, 0.33% active. OD600, 16 h;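 active = z-score of -3 or lower and OD600 up to 0.18 on both plates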;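 also: plate controls were untreated cells for no effect and reference antibiotic for full effect; stock transfer was 100 nL into about 80 µL; one replicate is shown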
BJeLR lethal – kills HRASV12-expressing BJeLR cells; BJeLR (HRASV12) viability, CellTiter-Glo ATP luminescence, 48 h; reference of the scale not given here; inhibition, % (no concentration beside the values); 300,000 tested, 0.17% active;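 active = replicate mean above 50%; inconclusive = above 50% but judged a plate artefact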;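 also: 50 nL library stock added to about 25 µL; numbers are from one replicate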
Autofluor counter – compound fluorescence in toxin protease inhibitor counterscreen | compound autofluorescence counterscreen, microsphere flow cytometry; active compounds read high | fluorescence intensity (concentration not given with the values) | 360,000 tested, 3.1% active | AID 624483;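 active = at least 3 SD above the mean of all compounds, about 16000 in these data; inconclusive = too few beads counted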;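 also: 100 nL of 1 mM stock went into each well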
Mtb hypoxia rep – reduces hypoxia-regulated biosensor signal in M. tuberculosis; fluorescence inhibition, % (concentration not given with the values); M. tuberculosis hypoxia-regulated fluorescent reporter, fluorescence; 300,000 tested, 0.1% active;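 active = 35 to 45% if threefold the growth effect, above 45% if 1.5-fold the growth effect; inactive = the rest, general growth blockers included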;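 also: wells of about 50 µL received 100 nL stock; 0% = vehicle wells and 100% = reference inhibitor wells; whole bacteria with a GFP reporter of the hypoxia response; strong numbers were not always called active; many hits fall short of the cut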
PrP UTR inh – inhibition of PrP 5' UTR reporter expression; inhibition, % (concentration not given with the values); cell-based PrP 5' UTR mRNA reporter, plate reader; 340,000 tested, 0.35% active;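 active = every replicate at 50% or more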;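 also: 0 = median of the neutral control wells; tested in H4 reporter cells; numbers are from one replicate; inactives centre near -14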
Mtb hypoxia rep growth – further read-out of Mtb hypoxia rep, marked with its call; growth inhibition, %; measured here: M. tuberculosis growth (absorbance);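 0% = vehicle and 100% = reference antibiotic; read after six days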
Active calls of the source: *; ? = inconclusive; / = not tested or not shown; & = joins results of further samples.

SMILES	ugtP null kill	Sa RN4220 lethal	BJeLR lethal	Autofluor counter	Mtb hypoxia rep	Mtb hypoxia rep growth	PrP UTR inh
COc1ccc(Cl)cc1C(=O)Nc1cccnc1	7	2.3	13	4012	-1	7	-23
COc1ccc(/C=C/C(=O)NNC(=O)c2cc(C)oc2C)cc1	8	6.2	5	?	-14	-14	-3
CC(=O)N1CCC(=NNc2ccc(S(N)(=O)=O)cc2[N+](=O)[O-])CC1	-3	4.3	0	4649	5	-3	-26
CN1C(=O)[C@@H]2[C@H](C1=O)[C@@H]1C(=O)Nc3ccccc3C(=O)N1[C@@H]2c1ccc(Br)cc1	/	/	0	3707	/	/	-17
Cc1ccccc1NC(=O)NC1(C(=O)N2CCCC2)CCCCC1	-2	-3.5	-27	4538	-14	6	2
N#Cc1ccccc1OCC(=O)NCc1ccccc1CN1CCCC1	9	3.3	/	3318	4	-3	-6
CCOC(=O)C1CCN(C(=O)CN2C(=O)CSc3ccc(S(=O)(=O)N4CCOCC4)cc32)CC1	10	0.9	9	5439	10	8	-5
CC12CCC(=O)N1C(C(=O)Nc1ccc(Cl)c(Cl)c1)CS2 (centres undefined)	-2	2.9	1	?	10	0	-38
Cc1nn(-c2ccccc2)c(Cl)c1/C=C1/C(=N)N2N=C(C(C)C)SC2=NC1=O	-3	11	3	2747	6	7	-6
CCOC(=O)C1CCN(C(=O)CSCc2nc(-c3ccc(OCC)cc3)oc2C)CC1	-13	7.3	7	2751	3	1	-5
CCCn1c(N)c(C(=O)CN(C)CC(=O)Nc2ccc(F)cc2)c(=O)[nH]c1=O	1	-4.0	/	3897	12	3	-9
CN(CCCC(=O)Nc1ccc(Br)cc1F)S(=O)(=O)c1ccccc1	7	4.8	7	3280	10	7	-12
CC(C)(C)NC(=O)COC(=O)c1ccc(F)cc1Cl	0	2.0	12	5107	7	5	-31
CCOC(=O)c1ccc(NC(=O)CCc2nnc3ccc(N4CCN(C)CC4)nn23)cc1	11	0.7	3	4243	14	-2	-10
CC(C)(C)OC(=O)CC1CC=CCC(CC(=O)N(CCO)Cc2ccccc2)C(=O)NC(Cc2c[nH]c3ccccc23)COC1=O (centres undefined)	5&5&-11	-1.2&0.9&3.2	/	/	-5&7&0	12&10&10	/
O=C(Nc1ccc(SC(F)F)cc1)c1cc(-c2ccncc2)nc2ccccc12	2	8.2	/	4139	2	2	-20
O=C1CC(N2CCC(O)(c3ccc(Br)cc3)CC2)C(=O)N1c1ccc(Cl)cc1 (centres undefined)	3	11	12	2725	4	1	-5
CCOC(=O)c1ccc2ncc(C(=O)OCC)c(Nc3ccc(N4CCOCC4)cc3)c2c1	-12	1.9	2	1892	9	-4	-8
CC(C)Cc1nnc(NC(=O)CCC(=O)N2CCCCC2)s1	2	-0.8	-12	5501	9	3	-11
Cc1sc2ncnc(SCC(=O)Nc3ccc(CN4CCCC4)cc3)c2c1C	6	5.5	/	7586	3	2	18
Nc1c(-c2cccc(Cl)c2)cnn1-c1cccc([N+](=O)[O-])c1	-11	12	-11	?	6	-1	-35
CN1CCCC(OC(=O)c2cc(Br)ccc2Cl)C1 (centres undefined)	4	-7.9	13	2417	14	8	-2
CCC(=NNC(=O)c1ccc(N(C)C)cc1)c1ccccc1	0	1.5	/	/	2	-1	/
Cc1ccc(C)c(OCCC(=O)NNC(=O)c2ccccc2F)c1	5	3.3	11	4361	10	0	-14
CC1CCCCN1CCNC(=O)c1cc2c(-c3ccccc3F)nn(C)c2s1 (centres undefined)	8	4.0	1	8392	-1	0	-24

Looked up above:
Cc1sc2ncnc(SCC(=O)Nc3ccc(CN4CCCC4)cc3)c2c1C – PrP UTR inh = 18
Cc1ccccc1NC(=O)NC1(C(=O)N2CCCC2)CCCCC1 – Mtb hypoxia rep growth = 6
CCOC(=O)c1ccc(NC(=O)CCc2nnc3ccc(N4CCN(C)CC4)nn23)cc1 – ugtP null kill = 11

3 compounds out of the list, sorted by SMILES length, low to high:
SMILES	ugtP null kill	Sa RN4220 lethal	BJeLR lethal	Autofluor counter	Mtb hypoxia rep	Mtb hypoxia rep growth	PrP UTR inh
COc1ccc(Cl)cc1C(=O)Nc1cccnc1	7	2.3	13	4012	-1	7	-23
CCOC(=O)c1ccc(NC(=O)CCc2nnc3ccc(N4CCN(C)CC4)nn23)cc1	11	0.7	3	4243	14	-2	-10
CCCn1c(N)c(C(=O)CN(C)CC(=O)Nc2ccc(F)cc2)c(=O)[nH]c1=O	1	-4.0	/	3897	12	3	-9

The listing picks up, repeating the two entries before the break.
SMILES	ugtP null kill	Sa RN4220 lethal	BJeLR lethal	Autofluor counter	Mtb hypoxia rep	Mtb hypoxia rep growth	PrP UTR inh
Cc1ccc(C)c(OCCC(=O)NNC(=O)c2ccccc2F)c1	5	3.3	11	4361	10	0	-14
CC1CCCCN1CCNC(=O)c1cc2c(-c3ccccc3F)nn(C)c2s1 (centres undefined)	8	4.0	1	8392	-1	0	-24
CCc1ccc(C(=O)COC(=O)c2cc([N+](=O)[O-])ccc2NCCO)cc1	-6	3.6	7	2074	5	5	-45
CC1CC(C)CN(CCCNS(=O)(=O)c2cc(Br)cc3c2N(C(=O)C2CC2)CC3)C1 (centres undefined)	2	5.2	12	4189	-10	-15	0
CCC(C)(C(=O)NC1CCCCC1)N(C(=O)C1CCC(=O)N1)c1ccc(C)cc1 (centres undefined)	16	0.1	/	4105	/	/	-12
CCOC(=O)CSc1cc(-c2ccccc2)nc2ncnn12	-2	2.9	-3	3762	7	9	-24
COc1c(OC(C)=O)ccc(C=NNC(=O)c2ccc(Br)cc2)c1[N+](=O)[O-]	8	17	/	/	-3	10	/
COc1ccc(S(=O)(=O)NCc2ccccn2)cc1Br	6	4.6	-1	3805	2	0	-21
CCOC(=O)CNC(=O)CSc1nnc(NC(=O)c2ccc(S(=O)(=O)N3CCOCC3)cc2)s1	3	0.2	2	?	-1	8	-9
O=C(Nc1cc2c3c(c1)C1CCCC1CN3CC1CCCC21)c1ccccc1 (centres undefined)	-23	4.1	9	3320	1	10	-1
CCc1cccc(C)c1NC(=O)CSc1ncn[nH]1	14	-1.0	6	3620	/	/	-13
O=C(Nc1ccccc1N1CCCCC1)c1ccc(N2C(=O)c3ccccc3C2=O)cc1	0	6.5	-6	16910*	8	4	-4
CCCC(=O)OC/C(O)=C(\C#N)c1nc2ccccc2[nH]1	1	2.9	-17	4396	-6	4	-4
Cn1cc(C(=O)N/N=C/c2ccc([N+](=O)[O-])cc2)c2ccccc21	/	/	13	4737	/	/	-8
CCCNC(=O)/C(=C/c1cn(S(=O)(=O)N(C)C)c2ccccc12)NC(=O)c1ccc(OC)cc1	2	20	-10	4411	2	6	-8
CC(C)CCNC(=O)CCCOc1cc(=O)n(C)c2ccccc12	11	5.8	-12	10442	3	-8	-18
COc1cc2nc(N3CCN(c4cc(C)ccc4C)CC3)nc(N)c2cc1OC	-4	17	19	5747	-16	-9	5
CCOc1ccccc1NS(=O)(=O)c1ccc2[nH]c(=O)ccc2c1	4	3.1	1	3322	1	2	-11
CCc1noc(C)c1C(=O)OCC(=O)N1CCc2ccccc21	2	2.5	/	6260	10	-4	-18
CCOC(=O)c1c(C)[nH]c(C(=O)COC(=O)CNC(=O)C2CCCCC2)c1C	4	-6.5	7	3140	/	/	-26
COc1ccc(C(OC(=O)c2ccco2)C(=O)NC2CCCC2)cc1 (centres undefined)	0	6.1	0	3704	-11	-2	-8
CCOC(=O)N1CCN(C(=O)C2CCCN(S(=O)(=O)c3cc(C)ccc3OC)C2)CC1 (centres undefined)	4	1.4	-4	5079	3	7	1
Cc1cccc(C(=O)N(Cc2nc3ccccc3c(=O)[nH]2)C2CCCC2)c1	-1	5.8	-13	4311	10	6	-34
CC(=O)[C@@]1(O)CC[C@H]2[C@@H]3C[C@H](C)C4=CC(=O)CC[C@]4(C)[C@H]3CC[C@@]21C	/	/	-1	6333	/	/	-18
NNC(=O)c1nc[nH]c1C(=O)Nc1ccc(Cl)cc1C(=O)c1ccccc1	-8	1.5	0	2979	13	0	-21
COc1ccc2cc(C(C)C(=O)N3CCC(C)CC3)ccc2c1 (centres undefined)	0	5.9	-5	4320	11	-6	-16
COc1cccc(Nc2nc3ccc(C(=O)c4ccccc4)cc3n3cnnc23)c1	-7	3.0	6	4465	2	-4	/

Additional results follow.
SMILES	ugtP null kill	Sa RN4220 lethal	BJeLR lethal	Autofluor counter	Mtb hypoxia rep	Mtb hypoxia rep growth	PrP UTR inh
COc1ccc(C(=O)NC2CCN(CC(=O)NCc3ccccc3F)CC2)cc1	1	-2.0	4	3549	-4	-2	-22
CCN(c1ccccc1)S(=O)(=O)c1ccc(OC)c(NC(=O)CNCC(C)O)c1 (centres undefined)	0	9.9	-1	1888	10	4	-8
CN(Cc1ccccc1)S(=O)(=O)c1ccc(OCC(=O)NCc2ccccn2)cc1	10	1.8	6	3968	-4	-2	-12
O=C(NC1CCCCC1)C(c1cccnc1)N(C(=O)c1ccc(Cl)nc1)C1CCCCC1 (centres undefined)	1	3.5	5	4392	-3	2	39
O=C(CCN1C(=O)C2CC=C(Cl)CC2C1=O)Nc1ccccc1O (centres undefined)	-6	2.3	-6	2605	4	7	-5
O=c1[nH]n2c(=O)c3c([nH]c2c1N=Nc1cccc(Cl)c1)CCC3	-2	10	-2	7232	16	3	-11
Cc1csc(SCC(=O)Nc2nncs2)n1	16	5.6	7	5070	-5	-5	-4
Nc1ccc2nc(-c3cccc(-c4nc5ccc(N)cc5[nH]4)c3)[nH]c2c1	-7	0.0	3	3075	0	-7	-10
CC(C)n1ncc2c(C(=O)N3CCN(c4ccc(F)cc4)CC3)cc(-c3ccccc3)nc21	-12	-5.4	/	3734	-9	2	-13
Cc1nc2ccc(Br)cc2c(-c2ccccc2)c1C(=O)O	/	/	-1	4546	/	/	-53
COc1ccc(/C=C2\SC(=S)N(CCCC(=O)N3CCOCC3)C2=O)cc1	0	0.5	-2	5061	8	7	7
Cc1ccc(S(=O)(=O)NCCC(=O)Nc2cccc(S(N)(=O)=O)c2)cc1C	2	0.3	-7	5806	17	3	-12
COc1ccc(N=C2NN=C(c3ccc4c(c3)OCCO4)CS2)cc1	-10	-11	-8	3128	12	12	-29
COc1ccc(C(=O)NNC(=O)C2CCN(S(=O)(=O)c3ccc(C)cc3)CC2)cc1	1	3.2	-10	5043	8	3	-19
COc1cccc(/C=C/C(=O)NNC(=O)c2cc(C)oc2C)c1	4	2.6	0	/	5	4	-9
CC(C)CN1C(=O)c2ccc(C(=O)Nc3ccc(O)cc3C(=O)O)cc2C1=O	-1	-2.3	1	4463	13	7	-13
CC1CCCCN1Cc1ccc(-c2nn[nH]n2)cc1 (centres undefined)	-4	-9.6	1	3160	16	7	-23
CC(=O)N1c2ccc(S(=O)(=O)N3CCC(C(=O)N4CCN(c5ccccc5F)CC4)CC3)cc2CC1C (centres undefined)	-1	-1.2	0	4207	1	-3	4
Cc1ccc(S(=O)(=O)CCC(=O)OCC(=O)c2ccc(C)c(C)c2)cc1	4	8.3	-6	8822	6	6	-10
Cc1ccc(NC(=O)Cn2c(=O)oc3ccccc32)cc1	1	3.9	-9	4488	1	-2	-14
Cc1noc(C)c1C(=O)N1CCN(Cc2ccc3c(c2)OCO3)CC1	3	-1.4	0	7514	4	-1	-13
O=C(CCc1ccccc1)NNC(=O)c1ccccn1	7	0.3	13	4349	6	12	-20
O=C(CSC1c2ccccc2-c2ccccc21)N/N=C/c1ccccc1O	/	/	8	8213	/	/	-15
COc1ccc(C2c3c(oc4ccccc4c3=O)C(=O)N2c2ccccn2)cc1OC (centres undefined)	5	-0.6	-8	4410	/	/	-6
CC1Nc2nc(NC(=O)C(C)(C)C)[nH]c(=O)c2N(C)C1C (centres undefined)	/	/	15	10534	/	/	-16

Additional structures
SMILES	ugtP null kill	Sa RN4220 lethal	BJeLR lethal	Autofluor counter	Mtb hypoxia rep	Mtb hypoxia rep growth	PrP UTR inh
CC1CCC2(CC1)NC(=O)N(Cc1nnc(-c3cccs3)o1)C2=O (centres undefined)	5	8.2	3	4195	11	2	-21
CCC(C)N1C(=S)SC(C)(C)C1N(O)C(=O)NC1CCCCC1 (centres undefined)	4	3.2	8	4622	12	12	-19
CCn1c(COC(=O)CNC(=O)c2ccccc2)nc2cc(S(=O)(=O)N(C)C)ccc21	3	2.0	-6	6460	1	3	-13
O=S1OCCN1c1ccccc1 (centres undefined)	/	/	-7	4096	/	/	-7
CCc1c(C)sc(NC(=O)c2cc(-c3ccc(OC)c(OC)c3)on2)c1C#N	-2	-1.6	3	9787	-1	-5	-12
CC1=NN(c2nc(-c3ccc(C)cc3)cs2)C(=O)C1N=Nc1cccc(O)c1 (centres undefined)	-9	7.0	-1	5098	11	-7	-19
